RanGTP-Impb inh: inhibitors of RanGTP-importin-beta interaction, primary screen, biochemical, FRET, CFP-Ran, YFP-importin-beta, homogeneous | inhibition, % (test concentration not listed) | 300,000 compounds, 1.1% hits | cell-free CFP-Ran/YFP-importin-beta FRET ratio;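 active = most replicates above 15%; inconclusive = exactly half above 15%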;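 also: 0% = DMSO wells and 100% = Ran loaded with GDP instead of GTP; wells of about 40 µL received 100 nL stock; the first replicate is given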
Vif A3G: HIV-1 Vif–A3G interaction blockers – biochemical, TR-FRET, GST-Vif 1-94, biotin-A3G peptide, dose response retest, primary screen (AID 1117319). inhibition, %, or IC50 in µM where a hit was titrated. TR-FRET GST-Vif / biotin-A3G peptide binding; higher % means a stronger effect; test concentration not given here; strong numbers were not always called active. 260,000 compounds, 0.57% hits;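 active = above the screen mean plus three standard deviations and confirmed in dose response; inconclusive = results disagree or hit not tested in dose response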;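 also: Vif residues 1-94 fused to GST binding biotinylated APOBEC3G peptide 110-148; 0% = full assay without inhibitor and 100% = GST in place of GST-Vif; retest series ran down from 100 µM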
HNF4A DNA FP: change in binding of human HNF4 alpha to DNA. 360,000 compounds, 0.3% hits. HNF4a-FITC DNA binding, fluorescence polarization, 1 h. AID 1224865. P41235. activity change, % at 10 µM; in the data active = activity change above about 30%, passing the limit was not always enough;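 also: controls were the assay level and a saturating level of protein; the project sought stronger binding though the title names inhibitors; some compounds called inactive have numbers as strong as hits; positive values seem to mean higher polarization but the record does not say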
Target sequence (P41235 whole entry, looked up): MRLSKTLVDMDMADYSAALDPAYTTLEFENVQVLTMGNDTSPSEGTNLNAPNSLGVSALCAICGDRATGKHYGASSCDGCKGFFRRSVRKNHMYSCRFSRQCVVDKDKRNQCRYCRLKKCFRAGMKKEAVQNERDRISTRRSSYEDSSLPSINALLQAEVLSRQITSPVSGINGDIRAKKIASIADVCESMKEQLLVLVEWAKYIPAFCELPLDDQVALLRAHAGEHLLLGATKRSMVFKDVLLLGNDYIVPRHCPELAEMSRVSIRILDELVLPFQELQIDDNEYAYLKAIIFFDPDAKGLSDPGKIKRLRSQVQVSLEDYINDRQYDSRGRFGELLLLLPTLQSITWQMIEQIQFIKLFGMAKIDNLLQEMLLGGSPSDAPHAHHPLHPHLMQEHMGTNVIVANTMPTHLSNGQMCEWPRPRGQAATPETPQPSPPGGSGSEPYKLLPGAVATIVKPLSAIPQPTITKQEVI
E coli growth: blocks Escherichia coli growth; OD600, 23 h; active compounds read low; OD600 absorbance (concentration not given with the values); 330,000 compounds, 0.21% hits; AID 1053175;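 active = OD600 absorbance below the run mean of sample wells minus 3.6 SD, in any replicate, cut at about 0.56 in these data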;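 also: stock transfer was 300 nL into about 60 µL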
AF4-AF9 inh: blocks AF4 peptide binding to human AF9; P42568; AlphaScreen, biotin-AF4 peptide binding to FLAG-AF9; inhibition, % at 10 µM; 350,000 compounds, 0.47% hits;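 active = every replicate reaching a set inhibition limit, whatever the replicate mean, cut at about 25% in these data; inconclusive = mean inhibition reaches that limit but some replicates miss it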;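 also: 0% = plate neutral control median and 100% = total signal loss; the record names both 10 and 1 µM as test concentration; the first replicate is given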
Target sequence (P42568 whole entry, looked up): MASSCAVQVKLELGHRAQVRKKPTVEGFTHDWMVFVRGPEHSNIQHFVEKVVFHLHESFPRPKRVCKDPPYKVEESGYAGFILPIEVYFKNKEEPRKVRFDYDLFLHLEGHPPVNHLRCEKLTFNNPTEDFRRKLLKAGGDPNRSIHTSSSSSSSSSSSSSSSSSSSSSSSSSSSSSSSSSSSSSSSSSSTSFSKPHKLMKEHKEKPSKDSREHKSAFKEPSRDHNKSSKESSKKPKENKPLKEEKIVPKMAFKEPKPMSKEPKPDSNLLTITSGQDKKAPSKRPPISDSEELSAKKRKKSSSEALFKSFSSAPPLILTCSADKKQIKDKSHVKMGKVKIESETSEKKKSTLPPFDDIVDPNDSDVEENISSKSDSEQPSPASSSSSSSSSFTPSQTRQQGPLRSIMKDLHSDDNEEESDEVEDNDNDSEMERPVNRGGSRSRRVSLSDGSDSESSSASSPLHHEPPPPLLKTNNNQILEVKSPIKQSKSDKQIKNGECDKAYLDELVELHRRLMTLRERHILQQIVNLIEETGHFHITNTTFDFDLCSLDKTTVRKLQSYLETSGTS
UCH37 inh: blocks the human deubiquitinase UCH37. AID 588478. inhibition, % (test concentration not listed). 330,000 compounds, 0.33% hits. purified proteasome/UCH37, Ub-AMC cleavage fluorescence;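 active = mean of two replicates above 20%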;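 also: 0% = compound-free wells with enzyme and 100% = wells lacking proteasome; stock transfer was 100 nL into about 20 µL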
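System: Proteasome-associated human UCH37 deubiquitinase; Input: 0.15 nM proteasome in added enzyme buffer; Also added: Ub-AMC substrate from 1 µM stock; Incubation: 30 min compound-proteasome preincubation then 25 min substrate reaction, room temperature; Detection: fluorescence, ex 355 nm, em 460 nm; Read-out: % inhibition of Ub-AMC cleavage fluorescence; Benchmarks: no-proteasome and no-compound wells.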
FGF22 binding: binders of recombinant human FGF22 by thermal shift; Q9HCT0; SYPRO orange fluorescence; percent of sucrose octasulfate shift, DMSO zero; calls only at 9.99 µM; 340,000 compounds, 1.5% hits;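 active = melting point raised past a set limit in the mean and every replicate; inconclusive = no clear call; three in four hits are not shown here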
* marks the source's active call; other numbers are inactive results; i = inactive; ? = inconclusive; nt = no result given; & = joins results of further samples. A portion of the library; rates above refer to the full screens.

The opening 5 compounds, to show the layout:
SMILES	RanGTP-Impb inh	Vif A3G	HNF4A DNA FP	E coli growth	AF4-AF9 inh	UCH37 inh	FGF22 binding
COC(=O)c1c(NC(=O)CCC(=O)O)sc(Cc2ccccc2)c1C	4.0	3%	0.0	0.7	1.2	2.1	i
CCn1ccnc1[C@@H]1C[C@H]2CN(Cc3cccc(Cl)c3)C(=O)[C@]23CCCN13	2.3	nt	-1.1	0.73	-0.3	4.4	i
Cc1cc(C(=O)OCC(=O)Nc2ncc(C(F)(F)F)cc2Cl)c(C)o1	0.8	10%	3.1	0.75	nt	0.1	nt
Cc1ccc(NC(=O)CC(NC(=O)c2ccccc2Cl)c2ccccc2)nc1 (stereo unspecified)	nt	3%	-4.0	0.67	-2.2	0.1	i
Cc1cc(Br)ccc1OCCN1CCCC1	3.4	4%	0.3	0.63	3.1	2.7	nt

This part in full, previewed entries included:
SMILES	RanGTP-Impb inh	Vif A3G	HNF4A DNA FP	E coli growth	AF4-AF9 inh	UCH37 inh	FGF22 binding
COC(=O)c1c(NC(=O)CCC(=O)O)sc(Cc2ccccc2)c1C	4.0	3%	0.0	0.7	1.2	2.1	i
CCn1ccnc1[C@@H]1C[C@H]2CN(Cc3cccc(Cl)c3)C(=O)[C@]23CCCN13	2.3	nt	-1.1	0.73	-0.3	4.4	i
Cc1cc(C(=O)OCC(=O)Nc2ncc(C(F)(F)F)cc2Cl)c(C)o1	0.8	10%	3.1	0.75	nt	0.1	nt
Cc1ccc(NC(=O)CC(NC(=O)c2ccccc2Cl)c2ccccc2)nc1 (stereo unspecified)	nt	3%	-4.0	0.67	-2.2	0.1	i
Cc1cc(Br)ccc1OCCN1CCCC1	3.4	4%	0.3	0.63	3.1	2.7	nt
Cc1nc2c(-c3ccccc3)c(C)nn2c(C)c1CCC(=O)NC(C)CCc1ccco1 (stereo unspecified)	-1.1	-3%	2.2	0.7	-22	5.2	i
CCCCOCCCNC(=O)C[C@@H]1C[C@@]2(C(=O)OC)CCCCC=C2N(Cc2ccco2)C1=O	nt	nt	1.4	nt	0.7	nt	i
COc1ccc(NC(=O)Cn2nnc(C(=O)Nc3ccc(F)c(Cl)c3)c2N)cc1	5.0	nt	-2.0	0.65	1.0	3.7	i
C#CCOCCOCCOCCNc1nc(N2CCOCC2)nc(N2CCN(C(=O)CCCCCCCCCCNC(=O)[C@@H](CCSC)n3cc(CCO)nn3)CC2)n1	nt	nt	0.2	nt	2.5	0.5	i
COc1ccc(NC(=O)CSc2nnc(NC(=O)C3CCC3)s2)c(OC)c1	-3.1	nt	-0.3	0.67	-6.1	0.1	i
CCOC(=O)C1(O)CC(C)=NN1C(=O)c1cccc(Br)c1 (stereo unspecified)	0.9	2%	1.3	0.65	-3.4	-2.7	i
Cc1cc(C)n(S(=O)(=O)c2cccc([N+](=O)[O-])c2)n1	-1.0	nt	-4.3	0.63	-1.9	0.5	i
Cc1cccn2c(=O)nc(SCC(=O)N3CCCC3)nc12	-1.7	-8%	0.2	0.68	-7.4	-1.0	i
COC(=O)[C@]12C(=O)NC[C@H](CN1c1ccc(C(F)(F)F)cc1)N2C	nt	nt	-0.9	nt	-1.9	0.0	i
O=C(C=Cc1cccs1)c1ccccc1	nt	-10%	0.9	nt	1.3	nt	i
Cc1c(C(=O)Nc2ccc(Cl)cc2)c2ccccn2c1C(=O)c1ccccc1	3.9	17%	4.5	0.77	nt	-28	nt
O=C(COc1cc(O)c2c(=O)cc(-c3ccccc3)oc2c1)c1ccc(F)cc1	-2.3	?	4.4	0.72	0.3	5.8	i
Cc1ccc(-n2cc(CN3CCNC(=O)CC3)c(-c3cccc(C)c3)n2)cc1	1.4	-4%	-1.6	0.68	6.5	4.7	nt
CCNC(=S)NNC(=O)c1csc(C)c1	0.2	9%	1.2	0.71	-0.5	6.2	i
O=C1N=c2ccccc2=C1c1c(O)[nH]c2c(C(F)(F)F)cccc12	-0.8	nt	-1.0	0.69	3.5	6.6	i
CC1CCN(S(=O)C23CC4CC(CC(C4)C2)C3)CC1 (stereo unspecified)	4.6	9%	-2.3	0.72	-1.5	3.7	i
COc1ccc(C2=NN(CN3C(=O)C(=O)c4ccccc43)C(c3ccc(OC)cc3)C2)cc1 (stereo unspecified)	-2.2	nt	0.6	0.71	0.9	3.1	nt
Cc1ccc2ncnc(Oc3ncccc3[N+](=O)[O-])c2c1	1.5	-12%	1.2	0.64	1.8	1.0	i
CCCCc1cc(=O)oc2cc(C)cc(OCC(=O)NCc3ccncc3)c12	1.8	nt	0.1	0.67	1.6	-73	i
O=C(N/N=C/c1ccco1)c1cc(-c2ccccc2)nc2ccccc12	7.1	-3%	-4.2	nt	3.8	nt	i
O=C1CCc2cc(S(=O)(=O)N3CCN(C(=O)c4ccco4)CC3)ccc2N1	-3.0	7%	-2.9	0.65	nt	-0.5	nt
COc1ccccc1C(=O)NC(=O)COC(=O)c1ccc([N+](=O)[O-])cc1	nt	1%	-1.2	0.68	-0.8	0.9	i
C[C@H]1CN([C@@H](C)CO)C(=O)CCCn2cc(nn2)CO[C@@H]1CN(C)S(=O)(=O)c1ccc(-c2ccccc2)cc1	nt	nt	-1.7	nt	-6.5&2.3&-1.2	nt	i
Cc1cccc(-n2c(C)nc3cc(C(=O)NCCN4CCOCC4)ccc32)c1	nt	-4%	-1.3	nt	0.0	nt	i
Cc1ccc2c(=O)n3c(nc2c1)C(CC(C)C)NC(=O)c1cccnc1-3 (stereo unspecified)	nt	0%	1.5	nt	-7.8	nt	i
Cn1nc(-c2ccccc2)c(-c2nc(-c3cccc(C(F)(F)F)c3)no2)c1Cl	-1.8	-2%	1.1	0.73	nt	1.2	nt
COc1ccc(OCC(=O)Nc2cc3oc4ccccc4c3cc2OC)cc1	1.1	-35%	-1.1	0.69	nt	-22	nt
CCOc1ccc2nc(NC(=O)Nc3ccccc3)sc2c1	1.3	-4%	-1.8	0.72	nt	2.4	nt
COc1ccccc1CNC(=O)c1cc(C(=O)CC(C)C)c[nH]1	1.5	-8%	3.1	0.68	-1.3	4.1	i
COCCC(=O)N1CCC(Oc2ccc(C(=O)NCCCC3CCCC3)cc2)CC1	-1.2	-8%	2.8	0.7	-6.3	-6.9	i
COc1ccc(OCC(=O)Nc2c3c(nn2-c2ccccc2)CS(=O)(=O)C3)cc1	-1.3	nt	0.9	0.72	0.0	1.9	i
CCN1CCCC1CNC(=O)CCc1nc(-c2ccc(C)cc2)no1 (stereo unspecified)	nt	8%	1.4	0.7	nt	0.8	nt
CC(C)(C)OC(=O)C[C@@H]1C/C=C\C[C@H](CC(=O)N[C@H](CO)Cc2ccccc2)C(=O)N[C@H](Cc2ccccc2)COC1=O	nt	nt	3.4	nt	2.7	3.7	i
CCOC(=O)c1cccc(NC(=O)c2ccc(N(C)C)cc2)c1	6.4	28%	1.1	0.71	-1.7	4.6	i
O=C(CCN1C(=O)[C@@H]2Cc3ccccc3CN2C1=O)N[C@@H](Cc1ccccc1)C(=O)O	4.4	nt	-2.4	0.72	-2.4	5.1	i
Cn1c(=O)c2c(nc(SCCCC#N)n2Cc2ccccc2F)n(C)c1=O	-3.2	6%	-1.2	0.76	-3.6	7.1	i
Cc1ccc(-c2nnc(Nc3ccc(OCC(N)=O)cc3)c3ccccc23)cc1S(N)(=O)=O	-4.4	-1%	1.1	0.63	0.2	8.3	i
CC1CCN(C(=O)CNC(=O)c2ccc(Br)o2)CC1	nt	nt	-1.9	0.68	-1.9	6.5	i
CC(Oc1ccc(Cl)cc1Cl)c1ccnc2nc(N3CCOCC3)nn12 (stereo unspecified)	-1.8	11%	-2.6	0.68	1.1	-28	i
Cn1c(=O)oc2cc(S(=O)(=O)NCc3ccncc3)ccc21	-0.8	6%	9.1	0.7	nt	1.2	nt
CCCCN(C(=O)/C=C/c1ccc(OCC(C)C)c(OCC)c1)c1c(N)n(CCC)c(=O)[nH]c1=O	4.0	9%	-0.8	0.71	-3.1	4.1	i
CCOC(=O)c1cccc(S(=O)(=O)N(CCO)Cc2cc3cc(OC)ccc3[nH]c2=O)c1	-1.4	-7%	-4.8	0.67	-6.4	-24	i
Cn1c(=S)c2[nH]c(SCCN)nc2n(C)c1=O	nt	-1%	1.4	0.66	-3.7	12	i
COc1ccc(-c2nnn(CC(=O)NCc3cccs3)n2)cc1OC	-4.6	23%	5.6	0.71	nt	2.5	nt
Cc1ccc(Nc2nc(=O)c3cccnc3s2)c(Br)c1	4.5	32%	0.7	0.62	0.4	2.9	i
COCC(=O)N1C[C@@H](C)[C@@H](OC)CN(C)C(=O)c2ccc(NC(=O)c3cnccn3)cc2OC[C@H]1C	nt	nt	3.8	nt	-1.0&1.2	nt	i
COCCNC(=O)C(OC(=O)CC1Sc2ccccc2NC1=O)c1ccccc1 (stereo unspecified)	-1.7	nt	0.9	0.76	nt	-0.4	nt
COc1cccc(C(=O)NC(C)C(c2cccs2)N2CCN(C)CC2)c1 (stereo unspecified)	?	2%	15	0.72	nt	-0.9	nt
O=C1CSC(=S)N1	7.4	nt	3.4	0.69	?	0.1	i
COc1ccc(CN2CCN(C3CCC3)CC2CCO)cc1C (stereo unspecified)	2.6	nt	2.6	0.68	-0.8	6.3	i
O=C(Nn1c(O)c(C=C2N=c3ccccc3=N2)sc1=S)c1ccccc1Cl	?	9%	-1.3	0.71	nt	1.6	nt
O=C(Nc1ccc(CN2CCOCC2)cc1)c1ccc(-c2cc(Cl)ccc2Cl)o1	-3.7	-5%	-3.6	0.68	nt	-7.6	nt
CCCCSc1nnc(-c2ccc(NC(=O)CCc3ccccc3)cc2)n1C	-2.2	-2%	-0.1	0.72	nt	-0.8	nt
Cc1ccc2nc(SCC(=O)Nc3c(F)cccc3F)[nH]c2c1	-1.3	-1%	-1.7	0.61	0.2	-1.6	nt
CCCCNC(=O)c1ccc(N2CCC3(CC2)OCCO3)c([N+](=O)[O-])c1	0.8	nt	2.4	0.59	nt	3.0	nt
Further records follow:
SMILES	RanGTP-Impb inh	Vif A3G	HNF4A DNA FP	E coli growth	AF4-AF9 inh	UCH37 inh	FGF22 binding
NC(CSCc1cccc(Br)c1)C(=O)O (stereo unspecified)	9.1	-8%	-2.1	nt	-1.6	nt	i
CCOc1ncccc1C(=O)Nc1cccc(-n2cnnn2)c1C	nt	nt	0.5	0.71	-2.0	6.2	i
Cc1ccc2nc(C)c(C(=O)N/N=C/c3ccc(N4CCOCC4)cc3)cc2c1	2.8	-2%	-1.3	nt	nt	nt	nt
CC(C)N(Cc1nccn1C)C(=O)c1ccc2oc(CCCc3ccccc3)nc2c1	-2.2	nt	0.0	0.74	5.2	5.9	i
CC1CN(Cc2ccccn2)CCC1=O (stereo unspecified)	-0.2	3%	1.9	0.7	nt	1.8	nt
O=C(Nc1ccccc1N1CCOCC1)c1ccc2c(c1)OCO2	6.4	-3%	3.1	0.68	-0.1	1.2	i
Cc1oc(-c2ccccc2Cl)nc1CS(=O)CC(=O)NCc1ccccc1Cl (stereo unspecified)	23	1%	0.5	0.61	-2.9	2.4	i
CCCn1nnc(NC(=O)c2ccc(Br)cc2)n1	0.2	6%	-0.4	0.63	-35	4.9	nt
Cc1cc(C)c(NC(=O)C2C(=O)Nc3ccccc3C(=O)N2C(C)(C)C)c(C)c1 (stereo unspecified)	nt	nt	-2.0	nt	-3.5	nt	i
O=C(CC1SCCNC1=O)Nc1cccc(Cl)c1 (stereo unspecified)	-1.3	10%	3.4	0.66	nt	1.1	nt
Cc1ccc(OCCCn2ccnc2)c(Br)c1	5.5	nt	1.5	0.59	2.3	3.8	i
Cc1ccc(C(=O)NCc2ccccc2F)cc1S(=O)(=O)N1CCCC1	-3.7	nt	1.3	0.67	0.2	1.0	i

From PubChem BioAssay
